Bioassay records as filed in PubChem.
Anthrax LT inh: anthrax lethal toxin internalization inhibition | AID 912 | Potency, µM (highest dose often 40 µM), inactives show top-dose activity change, negative = inhibition, hits mostly inhibitors | 0.67% of 70,000 active | Cells, anthrax lethal toxin internalization, FRET ratio (460/530); active = well fitted falling ratio curve with the 530 nm signal flat; inconclusive = other ratio curves, or a change in one channel alone; inactive = flat curves in the ratio and both channels; the % refers to the ratio; note: % is set by controls: 0 for no effect and ±100 for the full control effect; nearly all actives have a fitted effect of over 50% in size; tested in ME-180 cells; beta-lactamase reporter
Prx2 Sm inh: Schistosoma mansoni Prx2 inhibition. 0.07% of 65,000 active. Potency, µM. S. mansoni Prx2 activity coupled to TGR/GSH (TGR is thioredoxin glutathione reductase), NADPH fluorescence loss, qHTS; some inactives read as strong as hits. AID 448; active means full or partial inhibition curve with a strong effect at the top dose; inconclusive means weaker partial or single-point curve; inactive means no accepted curve; note: series up to 57 µM; many of its hits are not listed in these tables
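Coupled assay in which S. mansoni TGR passes NADPH reducing equivalents via glutathione to Prx2, which reduces H2O2. Compounds were preincubated 15 min at room temperature with 25 nM TGR/50 nM Prx2 mix. Kinetic NADPH fluorescence loss (ex 365/em 450 nm) was monitored.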
The depositor's hits bear a star; ? = inconclusive; / = no result given; & = joins results of further samples; [ ] = another dose, or the depositor's remark. Potency is the fitted concentration of half-maximal effect. Not all compounds are listed. The share of hits here may be higher or lower than overall.

SMILES	Anthrax LT inh	Prx2 Sm inh
Cc1oc(-c2cccc(Cl)c2)nc1CN1CCCC(C(=O)NCCCN2CCOCC2)C1 (centres undefined)	?	>57
COCCOC(=O)c1[nH]c2c(c1C)C(=O)CC(c1ccco1)C2 (centres undefined)	?	>57
Cc1nc2cc(NC(=O)NCCC3=CCCCC3)ccc2o1	-6%	>57
O=C(OCc1cc(=O)n2cc(Br)ccc2n1)C1COc2ccccc2O1 (centres undefined)	-9%	>57
O=C1CSC(=S)N1c1cccnc1	?	>57
Cc1ccc(CNC(=O)CN2CCC(C(N)=O)CC2)cc1	-2%	>57
O=C(NCc1ccco1)C1CCN(C(=O)Cc2ccccc2)CC1	13%	/
Cc1nc(NC2CCCCC2)c2nc(-c3ccccc3)n(CCN3CCCCC3)c2n1	?	/
COc1ccccc1N1CCN(C(CNS(=O)(=O)c2cccs2)c2cccnc2)CC1 (centres undefined)	1%	>57
Nc1nncn1C(=O)c1cccs1	-9%	>57
CCCCC(=O)NCCNc1nc2c(c(=O)n(C)c(=O)n2C)n1Cc1ccccc1	-7%	>57
COc1cc(C(=O)Nc2nnc(C)s2)cc(OC)c1OC	-11%	>57
COCCn1c(=O)c(-c2ccccc2)nc2cnc(OC)nc21	-9%	>57
CC(C)Oc1ccc(C(=O)NC2CCS(=O)(=O)C2)cc1 (centres undefined)	-18%	>57
COc1ccc(N2CCCCn3c2nc2c3c(=O)n(C)c(=O)n2C)cc1	-5%	>57

Given as labelled records: part of the list above
COCCn1c(=O)c(-c2ccccc2)nc2cnc(OC)nc21
  Anthrax LT inh = -9%
  Prx2 Sm inh = >57

COc1cc(C(=O)Nc2nnc(C)s2)cc(OC)c1OC
  Anthrax LT inh = -11%
  Prx2 Sm inh = >57

COc1ccc(N2CCCCn3c2nc2c3c(=O)n(C)c(=O)n2C)cc1
  Anthrax LT inh = -5%
  Prx2 Sm inh = >57

Nc1nncn1C(=O)c1cccs1
  Anthrax LT inh = -9%
  Prx2 Sm inh = >57

Additional records:
SMILES	Anthrax LT inh	Prx2 Sm inh
C=CCOC(=O)C(C(=O)CC)C(NC(=O)OC)c1ccc(F)cc1 (centres undefined)	-2%[8 µM]	/
O=C(O)/C(Cc1ccc([N+](=O)[O-])cc1)=N/O	4%[8 µM]	>57
O=C(CCC1CCCC1)N1CCN(C(=O)C2CC2)CC1	5%	>57
Cc1noc(C)c1CSc1nnc2ccc3ccccc3n12	-17%	>57
CCn1c(-c2cc(OC)ccc2OC)csc1=Nc1c(C)n(C)n(-c2ccccc2)c1=O	-5%	>57
Cc1ccc(C2CC(C(F)(F)F)n3nc(C(=O)NCC4CCCO4)cc3N2)cc1 (centres undefined)	1%	>57
COc1ccc(NC(=O)C2CCN(S(=O)(=O)c3ccc(C)cc3)CC2)cc1OC	-7%	/
COc1ccc(CC(=O)c2ccc(O)cc2O)cc1OC	-10%	/
O=c1c(-c2ccccc2)nc2cnc(N3CCNCC3)nc2n1-c1ccccc1	?	>57
COc1ccc(OCc2nc(C#N)c(N3CCN(c4ccc(OC)cc4)CC3)o2)cc1	?	>57
COc1ccc(NC(=O)C2CCCN(S(=O)(=O)c3cccc4nonc34)C2)c(OC)c1 (centres undefined)	0%	>57
O=C1CS/C(=N\c2ccccn2)N1C1CCCCC1	-4%	>57
CCN(CC)c1ccc(NC(=O)CN2CCN(c3nc(C)cc(C)n3)CC2)cc1	-27%	>57
COC(=O)c1c(N)nc(C)n1-c1ccc(OC)cc1	-4%	>57
Cc1ccccc1NC(=O)CSCCO	9%	>57
O[C@H](COc1ccccc1)CN1CCCCC1	-5%[8 µM]	>57
C=CCNc1nc2c(c(=O)[nH]c(=O)n2C)n1CCCCC	1%	>57
C/C(CCN1CCCc2nc(C)c(C)cc21)=N\O[C@@H](C)c1cc(-c2c(C)cc(C)cc2C)no1	6%[8 µM]	/
O=C(CSc1nc2scc(-c3ccco3)c2c(=O)n1-c1ccccc1)N1CCOCC1	?	>57
C=CCN1C(=O)C2C(C(=O)NCc3ccccc3)C3(C)C=CC2(O3)C1C(=O)NC(C)(C)C (centres undefined)	-3%	>57
N#CCCCCn1c(-c2cncs2)nc2ccccc21	25%	>57
CC(CCc1ccccc1)NC(=O)CSc1nnnn1C (centres undefined)	1%	>57
CCCCN(C)C(=O)C1CCN(C/C(C)=C/c2ccccc2)CC1	-5%	>57
CC(=O)n1cc(-c2ccncc2)c2ccccc21	15%	>57
COCCn1c(=O)c(C)nc2cnc(N3CCNCC3)nc21	-1%	>57
CN1CCN(S(=O)(=O)c2ccc3ccccc3c2)CC1	-4%	>57
COc1ccc(-c2cc(C(=O)N3CCCc4ccccc43)no2)cc1	-13%	>57
Cc1ccc(N(CC(N)=O)C2SC(=O)N(C)C2=O)cc1 (centres undefined)	-2%	>57
Cn1cccc1C(C(=O)NC1CCCCC1)N(C(=O)Cc1cccs1)C1CC1 (centres undefined)	6%	>57
Cc1ccc(C(=O)c2cc(C)sc2NC(=O)CN2CCN(C(=O)c3ccco3)CC2)cc1	-9%	>57

A few values from the entries so far.
CCn1c(-c2cc(OC)ccc2OC)csc1=Nc1c(C)n(C)n(-c2ccccc2)c1=O in Anthrax LT inh: -5%
Cc1ccc(CNC(=O)CN2CCC(C(N)=O)CC2)cc1 in Prx2 Sm inh: >57
C=CCNc1nc2c(c(=O)[nH]c(=O)n2C)n1CCCCC in Prx2 Sm inh: >57
Cn1cccc1C(C(=O)NC1CCCCC1)N(C(=O)Cc1cccs1)C1CC1 (centres undefined) in Anthrax LT inh: 6%
COc1ccc(NC(=O)C2CCN(S(=O)(=O)c3ccc(C)cc3)CC2)cc1OC in Anthrax LT inh: -7%
Cc1ccc(N(CC(N)=O)C2SC(=O)N(C)C2=O)cc1 (centres undefined) in Prx2 Sm inh: >57
C=CCOC(=O)C(C(=O)CC)C(NC(=O)OC)c1ccc(F)cc1 (centres undefined) in Anthrax LT inh: -2%[8 µM]

(listing goes on)
SMILES	Anthrax LT inh	Prx2 Sm inh
CCN1CC=C2C(C#N)=C(N)C(C#N)(C#N)C(CCc3ccccc3)C2C1 (centres undefined)	20%	>57
NC(=O)c1ccccc1NC(=O)CCc1ccccc1	-10%	/
CCn1c(N)nc2ccccc21	-3%	>57
COc1ccc(OC)c(Nc2nc(N)nc(-c3cc4ccccc4o3)n2)c1	-14%	>57
O=S(=O)(c1cnc[nH]1)N1CCc2ccccc21	5%	>57
CC1CCCC(N2C(=O)NC(NC(=O)c3ccco3)(C(F)(F)F)C2=O)C1C (centres undefined)	-8%	>57
CCOCCOC(=O)C1=C(C)N(C)C(=O)NC1c1ccccc1Cl (centres undefined)	-6%	>57
COc1ccc(-c2noc(C3CCCN(S(=O)(=O)c4cccc(Cl)c4)C3)n2)cc1OC (centres undefined)	?	>57
COC(=O)C1=C(C)N(c2cccc(Cl)c2)C(=O)C1	20%	>57
COc1ccc(OC)c(NC(=O)NCc2ccc(F)cc2)c1	-9%	>57
O=C(COC(=O)c1cc(-c2cccs2)nc2ccccc12)NCc1ccco1	-8%	>57
O=C(COC(=O)c1ccco1)Nc1ccc(Br)cc1	8%	>57
O=c1oc(-c2ccccc2)nc2c1cnn2-c1ccccc1	16%	>57
COc1ccc(COC(=O)N/N=C2/C[C@@H](O)[C@@H](O)[C@@H]3[C@@H]4C(=O)N(Cc5ccc6c(c5)OCO6)C(=O)[C@H]4CC[C@@H]23)cc1	0%[8 µM]	/
Cc1nc2cnc(Nc3ccccc3)nc2n(CCC#N)c1=O	?	>57
Cc1cc(C(=O)NC(C)c2ccc3c(c2)OCO3)cs1 (centres undefined)	-8%	>57
CCC(C)Sc1nc(O)cc(=O)[nH]1 (centres undefined)	-7%	/
Cc1ccc(CN(C(=O)Cn2nnc3ccccc32)C(C(=O)NCc2ccco2)c2cccs2)cc1 (centres undefined)	-7%	>57
C=CCN1C(=O)C2(C(C(=O)c3ccc(C)o3)=C(O)C(=O)N2CCCN2CCOCC2)c2ccccc21 (centres undefined)	-17%	>57
CC(=O)C1=C(O)C(=O)N(c2nnn(C)n2)C1c1cccs1 (centres undefined)	5%	>57
CN(C)CCCN1c2ccc(O)cc2Sc2ccc(Cl)cc21	?	>57
O=C(NC1CCCC1)c1ccc(COCC(F)(F)C(F)F)o1	-8%	>57
CC1CCC(NC(=O)C2CCN(C(=O)NC3CCCCC3)CC2)CC1 (centres undefined)	-8%	>57
Cc1onc(-c2ccccc2)c1C(=O)N1CCN(CCc2ccccc2)CC1	-5%	>57
CC(C)C(NC(=O)C1CCCCC1)C(=O)Nc1ccccn1 (centres undefined)	16%	>57
CCN(CCCNC(=O)COc1cc(=O)n(C)c2ccccc12)c1cccc(C)c1	4%	>57
CCCN(CCC)S(=O)(=O)c1cccc(C(=O)Nc2ccc3c(c2)OCO3)c1	12%	>57
O=S(=O)(NCCO)c1cccc2cccnc12	-5%	>57
COCc1cc(C)n(CC(=O)Nc2ccccc2C(=O)OC)c(=O)c1C#N	11%	>57
CCOC(=O)c1cccc(C(=O)OCC)n1	12%	>57
CCN(CC)c1ccc(CNc2ccc(Br)cn2)cc1	-4%	>57
O=C(O)C1CCCN1S(=O)(=O)c1ccc2ccccc2c1 (centres undefined)	-1%	>57
CN(C)CCCN1CCC2(CCC(C(C)(C)C)CC2)CC1	?	>57
COc1cccc(N2CCN(Cc3nc(N)nc(N4CCCc5ccccc54)n3)CC2)c1	-21%	/
O=C(CCS(=O)(=O)c1cccc2nsnc12)N1CCN(Cc2ccc3c(c2)OCO3)CC1	-28%	?
CN(C)c1ccc(NC(=O)c2cccc(N3C(=O)C4C5C=CC(C5)C4C3=O)c2)cc1 (centres undefined)	-18%	>57
CCOC(=O)C1CCCN(c2nnnn2-c2ccccc2)C1 (centres undefined)	-2%	>57
C=CCOc1ccc(/C(O)=C2/C(=O)C(=O)N(CCCn3ccnc3)C2c2cccs2)cc1 (centres undefined)	-7%	/
O=S(=O)(c1ccccc1)N1CCC[C@@]2(CCN(Cc3ccccc3)C2)C1	?	>57
CCCCn1c(=O)c(C(=O)NCc2ccncc2)c(O)c2ccccc21	?	>57
COc1ccc(S(=O)(=O)Nc2cc(C(C)C)c(O)cc2C)cc1	-17%	/
CCOc1ccc(-n2cc(C(=O)Nc3cccc(C)n3)c3cc(OC)c(OC)cc3c2=O)cc1	15%	>57
Cc1cnc(CNc2cc(-c3ccccc3Cl)ncn2)cn1	-4%	>57
COc1cccc(Cn2c(=O)c(-c3ccc(Cl)cc3)nc3cnc(N4CCOCC4)nc32)c1	?	>57
O=C(NCC1CCCO1)C1c2ccccc2C(=O)N1C1CCCCCC1 (centres undefined)	7%	>57
COc1ccc(C(=O)Oc2c(C)occc2=O)cc1OC	-5%	>57
CCOC(=O)CCNC(C)C1COc2ccccc2O1 (centres undefined)	-6%	>57
COc1cc2c(cc1OC)[C@H](C)NCC2	-16%	>57&>57
CCOc1ccc2nc(N3CCC(C(=O)N4CCN(C(=O)c5ccco5)CC4)CC3)sc2c1	-7%	>57
COC(=O)c1c(C(=O)OC)c(C)n(Cc2ccco2)c1C	-10%	>57
Cc1nn(C)c(C)c1S(=O)(=O)N(CC(=O)NCc1cccs1)c1ccc(C(C)C)cc1	-12%	>57
CCOc1ccc(C(=O)N(C)C2CCS(=O)(=O)C2)cc1 (centres undefined)	/	>57
COc1ccc(Cc2nnc(SCC(=O)NCCc3ccccc3)o2)cc1	-1%	>57
O=C1CC(c2ccc3c(c2)OCO3)c2cc3c(cc2N1)OCCO3 (centres undefined)	0%	>57
CCOC(=O)c1cc2c(=O)n3ccccc3nc2n(CCCOC)c1=NC(C)=O	?	>57
Cn1c(=O)c2c(SCc3cccnc3)nc(C3CC3)nc2n(C)c1=O	16%	>57
O=C(c1ccc(CS(=O)(=O)c2ccccc2)o1)N1CCC2(CC1)OCCO2	-19%	>57
CCOC(=O)C1CCCCN1Cc1ccc(OC)c(OC)c1OC (centres undefined)	-8%	>57
N=C(N)C(N=Nc1ccccc1)C(=N)N (centres undefined)	-11%[8 µM]	>57
C[C@@]12CCC(=O)C=C1CC[C@@H]1[C@@H]2[C@H](O)C[C@]2(C)[C@@H]1CC[C@]2(O)C(=O)COC(=O)CCC(=O)O	-2%	>26

(cont.)
SMILES	Anthrax LT inh	Prx2 Sm inh
CCOC(=O)c1ccc(N2C(=O)c3n[nH]c(C)c3C2c2ccc(O)cc2)cc1 (centres undefined)	?	>57
Cc1ccc(C(C)C)n1C(=O)OC(C)(C)C	0%[8 µM]	/
CCOC(=O)C1=C(C)NC(=O)NC1C1CC=CCC1 (centres undefined)	-3%	>57
Cc1cccc(NCc2nc(-c3ccccc3)no2)c1	?	>57
COC(=O)[C@@H]1CCCN1C(=O)[C@H]1C[C@@H]1[C@H](NC(=O)OCc1ccccc1)c1ccccc1	12%	/
Cn1cccc1Cc1nnc(SCC(=O)Nc2ccc(Cl)cc2)n1-c1ccc(F)cc1	?	>57

In the list so far, 5 contain an NH in an aromatic ring.
SMILES	Anthrax LT inh	Prx2 Sm inh
COCCOC(=O)c1[nH]c2c(c1C)C(=O)CC(c1ccco1)C2 (centres undefined)	?	>57
C=CCNc1nc2c(c(=O)[nH]c(=O)n2C)n1CCCCC	1%	>57
O=S(=O)(c1cnc[nH]1)N1CCc2ccccc21	5%	>57
CCC(C)Sc1nc(O)cc(=O)[nH]1 (centres undefined)	-7%	/
CCOC(=O)c1ccc(N2C(=O)c3n[nH]c(C)c3C2c2ccc(O)cc2)cc1 (centres undefined)	?	>57
